VDR inhibitor: Inhibitors of the vitamin D receptor (VDR): qHTS; Potency, µM, for inactives: max response, negative = inhibition, usual class: inhibitors; Vitamin D3 receptor (Homo sapiens), P11473; actives 0.93% (n = 400,000); VDR-SRC2-3 peptide fluorescence polarization, 2 h; AID 504847, 2011; active = well fitted inhibition curve with a large enough effect; inconclusive = small, poorly fitted or top-dose-only effect, or another doubt; inactive = no such curve, though single readings can be large or run the other way; also: series mostly up to about 120 µM
Target sequence (P11473 whole entry, looked up): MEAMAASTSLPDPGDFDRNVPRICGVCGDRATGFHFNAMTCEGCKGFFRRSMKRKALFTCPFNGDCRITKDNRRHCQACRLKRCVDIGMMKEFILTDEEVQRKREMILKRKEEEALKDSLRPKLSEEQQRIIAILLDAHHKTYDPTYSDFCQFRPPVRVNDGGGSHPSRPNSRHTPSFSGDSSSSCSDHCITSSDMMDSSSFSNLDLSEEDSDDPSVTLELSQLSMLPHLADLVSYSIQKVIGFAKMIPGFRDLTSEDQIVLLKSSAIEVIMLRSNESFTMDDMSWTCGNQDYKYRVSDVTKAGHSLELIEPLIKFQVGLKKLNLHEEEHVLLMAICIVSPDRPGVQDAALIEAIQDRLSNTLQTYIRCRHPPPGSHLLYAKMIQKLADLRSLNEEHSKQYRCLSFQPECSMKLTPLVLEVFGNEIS
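After 23 nl compound addition and a short centrifugation, plates sat for 2 hours at ambient temperature; polarization of fluorescence then indicated loss of VDR binding to peptide SRC2-3.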
* marks the source's active call; other numbers are inactive results; ? = inconclusive; & = joins results of further samples; [ ] = remark or other dose. % is scaled to controls: 0 for no effect and ±100 for the full control effect; potency is read from the fitted curve at half-maximal effect. Only part of the results is shown. The share of hits here may be higher or lower than overall.

SMILES	VDR inhibitor
COC1[C@@H](OC)C[C@H](C)[C@@H](OC)C2=CC(=O)C=C(NC(=O)/C(C)=C/C=C\[C@H](OC)[C@@H](OC(N)=O)/C(C)=C/[C@@H]1C)C2=O (stereo partly drawn)	79µM*
N#Cc1c(N2CCOCC2)nsc1-c1ccccc1	-16%
C/C(=N/Oc1nc(C)cc(C)n1)c1ccc(F)cc1	-13%
CN(c1ccccc1C(N)=O)S(=O)(=O)c1ccccc1	14%
COc1ccc(S(=O)(=O)N2CCN(CC(=O)c3[nH]c(C)c(C(C)=O)c3C)CC2)cc1OC	-11%
CCCOc1ccc(CNC(=O)Cc2cccs2)cc1	5%
O=C(O)c1cc([N+](=O)[O-])ccc1N1CCC(Cc2ccccc2)CC1	-6%
CCCCc1c(C)nc2cc(-c3ccco3)[nH]n2c1=O	1%
O=C(CSc1nc(-c2ccccc2Cl)ns1)NCc1ccc2c(c1)OCO2	-16%
O=C1C(=O)N(Cc2cccc([N+](=O)[O-])c2)c2ccccc21	?
COc1ccccc1CN(C)C(=O)C1(c2ccc(Cl)cc2)CC1	-19%
COc1ccc(NS(=O)(=O)c2ccc(Cl)c(C(=O)O)c2)cc1S(=O)(=O)N1CCCCC1	6%
COC(=O)CSc1nccc(-c2ccc(F)cc2)c1C#N	3%
O=Cc1cnc2ccccc2c1-c1ccccc1	-23%
CCn1c(=NC(=O)CSC(C)=O)sc2ccccc21	6%
CCOc1ccc(-n2c(C)cc(/C=N/Nc3nc(C)cc(=O)[nH]3)c2C)cc1	13%
CCOC(=O)c1[nH]c(C)c(CCC(=O)Nc2ccc(C)cc2Cl)c1C	16%
COc1ccc(C2=N[C@@H](C(C)C)CO2)cc1	6%
COc1ccc(-n2nnnc2SCC(=O)NCc2cccs2)cc1	?
COc1ccccc1NS(=O)(=O)c1cccc(C(=O)N2CC(C)OC(C)C2)c1 (stereo not drawn)	-4%
COc1ccc(S(=O)(=O)N2CCN(c3ccc(F)cc3)CC2)cc1C(=O)N1CCCC1	6%
CCCc1nc(SCC(=O)N2CCCC2)c2ccccc2n1	11%
O=C(Nc1ccc2c(c1)oc1ccccc12)C1CC1	11%
CN(Cc1cccnc1)C(=O)CC1C(=O)NCCN1Cc1ccc(-c2ccccc2)cc1 (stereo not drawn)	16%
Fc1cc(NC(=S)NCc2ccc(CNC(=S)Nc3ccc(Cl)c(F)c3)cc2)ccc1Cl	-2%
O=C(NCc1ccc(-c2nc3ccccc3s2)cc1)c1cc2ccccc2o1	-17%
COc1ccccc1/C=N/NC(=O)CSc1cc(C)nc2ccccc12	4%
COc1ccc(CNc2nc3ccccc3n2CCN2CCCCC2)c(OC)c1	-13%
N#Cc1ccc(CN2CCCC3(CCN(C(=O)c4ccncc4)CC3)C2)cc1	-27%
Cc1ccc(CNC(=O)/C=C/C(=O)O)cc1	-7%
Cc1ccc(-n2nnnc2CNC(=O)C(C)C)cc1C	10%
CCOC(=O)C(Oc1ccc2c(-c3ccc(OC)cc3)cc(=O)oc2c1C)c1ccccc1 (stereo not drawn)	7%
O=S(=O)(Nc1ncccn1)c1ccccc1	?
CC(=O)c1cc(CN2CCC(n3nccc3NC(=O)c3ccccc3)CC2)cs1	-18%
CN(C)C(=O)COc1ncnc2scc(-c3ccc(F)cc3)c12	8%
Cc1nc(SCC(=O)Nc2ccccc2Cl)oc1C	3%
Cc1cc(S(=O)(=O)NCC(c2ccc(F)cc2)N2CCN(C)CC2)ccc1F (stereo not drawn)	5%
COc1ccc(-c2nnn3c2nc(NCCc2ccc(OC)c(OC)c2)c2ccccc23)cc1	-7%
O=C(NCC(c1ccco1)N1CCOCC1)c1ccc(C(F)(F)F)cc1 (stereo not drawn)	-12%
CC(C)c1nc(=S)n(-c2ccccc2)[nH]1	7%
COc1ccc(OCCCC(=O)OCC(=O)Nc2nnc(-c3ccccc3)o2)cc1	11%
COc1ccc(C(=O)c2cn(Cc3ccccc3OC)c3cc4c(cc3c2=O)OCO4)cc1	5%
Cc1cccc(Nc2nnc(SCC(=O)NC(=O)Nc3ccc4c(c3)OCCO4)s2)c1	8%
Cc1cccc(C)c1NC(=O)NC1CCc2ccccc21 (stereo not drawn)	10%
COc1ccc(OC)c(NS(=O)(=O)c2cc3c(cc2Cl)N(C(C)=O)CCO3)c1	2%
O=[N+]([O-])c1ccc(OCC(O)CN(C2CCCCC2)C2CCCCC2)cc1 (stereo not drawn)	-6%
C#CCN1C=C(C(=O)OCC)C(C)NS1(=O)=O (stereo not drawn)	-1%
COc1ccc(CC(=O)Oc2ccc(F)cc2)cc1	-18%
CC(OC(=O)c1ccc(Cl)nc1)C(=O)Nc1ccc2c(c1)OCO2 (stereo not drawn)	16%
COc1ccc(CN2C(=O)c3c(c(C)n(C)c3C)C2C(=O)NC2CCC(C)CC2)cc1 (stereo not drawn)	?

(more compounds)
SMILES	VDR inhibitor
CCc1ccc2oc(-c3cc(N)cc(C)c3O)nc2c1	-5%
COc1ccccc1C(=O)OCn1nnc2ccccc2c1=O	-8%
O=C(COc1ccccc1F)N1CCN(S(=O)(=O)/C=C/c2ccccc2)CC1	-6%
CCNc1ccc(C(=O)O)cc1N	79µM*
O=C(NCC1CCN(c2ccc(S(=O)(=O)N3CCOCC3)cc2)CC1)c1cccc(Cl)c1	0%
CCC(C)C(NC(=O)c1ccc(Cl)cc1Cl)C(=O)O (stereo not drawn)	-14%
CCOC(=O)N1CCC(N2C(=O)c3ccccc3C2Nc2ccc(S(=O)(=O)N3CCOCC3)cc2)CC1 (stereo not drawn)	-21%
O=C(CCc1n[nH]c(=O)[nH]c1=O)N/N=C/c1ccc(Br)o1	14%
O=C(CSc1nc2ccc(Cl)cc2[nH]1)NCCc1ccccc1	-3%
COc1cc(CN2CCc3ccc(NC(=O)CCc4ccccc4OC)cc3C2)ccc1O	-9%
CCOc1ccc(CCNC(=O)c2cc([N+](=O)[O-])ccc2N2CCOCC2)cc1OCC	8%
COc1ccc(C=O)c(OCc2cn(CC(=O)c3ccc(O)cc3)nn2)c1	-5%
COc1cc(-c2cc(-c3ccc(O)cc3)nc(N)c2C#N)ccc1O	13%
O=C(O)c1cc2ncc(-c3[nH]ncc3[N+](=O)[O-])cn2n1	4%
Cc1ccccc1C(OCCN(C)C)C1CCCCC1 (stereo not drawn)	-16%
Nc1nc(NCc2ccccc2Cl)c2[nH]cnc2n1	1%
CCc1ccc(CN2C(=O)c3ccccc3C2C(=O)NCc2cccnc2)cc1 (stereo not drawn)	-6%
CCc1ccccc1NC(=S)N(CCN(C)C)C(C)c1cccnc1 (stereo not drawn)	-1%
CCOC(=O)c1nn(-c2ccccc2)c2nc(Nc3ccccc3)cc(=O)n12	-10%
O=[n+]1cc(-c2ccccc2)n([O-])c2c1CCC2	2%

Overlap with the part before: 2 entries; new compounds follow.
SMILES	VDR inhibitor
CCOC(=O)c1nn(-c2ccccc2)c2nc(Nc3ccccc3)cc(=O)n12	-10%
O=[n+]1cc(-c2ccccc2)n([O-])c2c1CCC2	2%
Cc1ccnc(NC(=O)c2ccc(S(=O)(=O)N3CCCCCC3)cc2)c1	-17%
COc1ccc(/C=N/NC(=O)C(C)n2cnc3ccccc3c2=O)cc1 (stereo not drawn)	3%
COc1ccc(CNC(=O)CCN2C(=O)c3ccncc3C2=O)cc1OC	-19%
Cc1cc(NCCC(C)C)n2nc(C)c(-c3ccccc3)c2n1	-8%
O=C(Nc1ccc(Br)cc1)C(Cc1ccccc1)NS(=O)(=O)c1cccc2nsnc12 (stereo not drawn)	11%
CC(=O)/C(N=Nc1cccc(C(F)(F)F)c1)=C(\C)O	-14%
O=C(CSc1nc2nc3c(cc2c(=O)n1-c1ccccc1)CCCC3)Nc1ccccc1	?
CCCCCN(C(=O)CCC(=O)OCc1cccc(C)c1)c1c(N)n(CCCC)c(=O)[nH]c1=O	4%
CCCCC(CC)CNC(=O)C(=O)c1ccccc1NC(C)=O (stereo not drawn)	-12%
O=C(Oc1ccc(N(Cc2cccs2)C2=NS(=O)(=O)c3ccccc32)cc1)c1ccccc1Cl	?
Cc1cc(Cl)ccc1NC(=O)C1COc2ccccc2O1 (stereo not drawn)	0%
CC(=O)Nc1ccc(SCC(=O)OCC(=O)NC(=O)NCc2ccco2)cc1	-1%
O=C(CSCc1nc2c(nnn2Cc2ccc(F)cc2)c(=O)[nH]1)Nc1cccc(C(F)(F)F)c1	2%
CC1(C)Oc2ccc3ccc(=O)oc3c2C[C@H]1O	-24%
CC(=O)Nc1ccc(S(=O)(=O)Nc2nc3ccccc3s2)cc1	3%
Cc1cccc(CN2CCN(C(=O)CN(C)C(C)C(=O)Nc3ccc(C(N)=O)cc3)CC2)c1 (stereo not drawn)	?
CC(=O)c1cc(-c2ccc(F)cc2)n(CC(=O)NCc2cccs2)c1C	12%
NC(=O)Cc1ccc(C(=O)c2ccccc2)s1	-15%
CCC1CCCCN1CCCNC(=O)c1ccc2c(c1)sc1nc(-c3ccc(F)cc3)cn12 (stereo not drawn)	-3%
O=P(NCc1ccccc1)(OCc1ccccc1)OCc1ccccc1	-6%
O=C(CCc1nc(-c2ccc(Cl)cc2)no1)NCc1ccccc1CN1CCOCC1	18%
COc1cccc(-c2nc(N3CC(C)CC(C)C3)c3ccccc3n2)c1O (stereo not drawn)	-2%
C=CCN1C(=O)C(CC(=O)Nc2ccccc2)N(Cc2ccccn2)C1=S (stereo not drawn)	-1%
COc1ccccc1OCC(=O)Nc1ccc(N2CCOCC2)cc1N1CCOCC1	-8%
CC1CC(C)CN(C(=O)/C=C/c2ccc(S(=O)(=O)N3CCOCC3)cc2)C1 (stereo not drawn)	-16%
COc1cc(-c2nc3ccccn3c2/N=C/c2cccc(OC)c2O)ccc1O	8%
Cc1ccc(C)c(CN2C(=O)c3ccccc3S(=O)(=O)c3ccc(C(=O)N4CCCC4)cc32)c1	-9%
O=C(NCc1ccccc1Cl)c1ccc2c(c1)N(Cc1ccccc1)CCS2	-15%
CCCCC[C@H](O)/C=C/[C@@H]1[C@@H](CCCCCCC(=O)O)[C@@H](O)C[C@H]1O	-13%&-1%&3%
CCCCN(C(=O)Cn1nnc2ccccc21)C(C(=O)NCCOC)c1ccc(OC)cc1OC (stereo not drawn)	-13%
CCCOc1cccc(NC(=O)OC2CCN(C)CC2)c1	-5%
COc1cc(OC)cc(C(=O)Nc2cccc(-c3cn4ccsc4n3)c2)c1	0%
COc1ccc(S(=O)(=O)N(c2onc(C)c2Cl)S(=O)(=O)c2ccc(OC)cc2)cc1	-5%
CCOC(=O)Cn1nc(C)c([N+](=O)[O-])c1C	26%
OCC[C@@H]1C[C@H](O)[C@@H](O)[C@]2(Cc3ccccc3CO2)O1	8%
CNC(=O)COc1cccc(C(=O)NCc2ccccc2)c1	-11%
CCn1cc2nc(SCC(=O)Nc3ccccc3F)n(Cc3ccccc3)c(=O)c2n1	6%
CCCc1cc(=O)[nH]c(Nc2cc(C)ccc2OC)n1	-1%
COCCNC(=O)C(c1cccc(OC)c1)N(Cc1cccs1)C(=O)Cn1nnc2ccccc21 (stereo not drawn)	-11%
Cc1ccccc1COc1ccc2oc(C)c(C(=O)O)c2c1	13%
COc1ccc(C(=O)Nc2ccc(S(=O)(=O)Nc3onc(C)c3C)cc2)c(OC)c1	-13%
O=C1c2ccccc2C(=O)N1CCc1csc(-c2cccc(F)c2)n1	-25%
COc1ccc(C(=O)NCc2ccc3c(c2)cc(C)n3C)cc1OC	2%
CCCn1cc(CN2CCCC(C(=O)c3cccc(OC(C)C)c3)C2)c(C)n1 (stereo not drawn)	9%
CNC(=O)[C@@H]1CCC(=O)N1	4%
COc1ccccc1Nc1nn2c(=O)c3ccc(C(=O)NCCCOC(C)C)cc3nc2s1	15%
CCCCCCCCCC(=O)NNC(=O)c1c(O)c2ccccc2n(CC)c1=O	-1%
Cc1ccc2nc(-c3ccc(NC(=O)c4ccco4)cc3)[nH]c2c1	37%[activator]
CCCOc1ccc(N2CC(C(=O)NC(C)C)CC2=O)cc1 (stereo not drawn)	-3%
O=C1Nc2cccnc2N(C(=O)CCl)c2ccccc21	3%

(list continues)
SMILES	VDR inhibitor
COc1ccc(OC)c(NC(=O)CN(c2ccccc2OC)S(=O)(=O)c2ccc(C)cc2)c1	1%
O=C(COC(=O)C1CC(=O)N(Cc2ccccc2)C1)Nc1ccccc1F (stereo not drawn)	-24%
Cc1c(Cl)cnc(NC(=O)COC(=O)c2ccc(S(=O)(=O)NCc3ccco3)cc2)c1Cl	-22%
Cn1nnnc1SCC(=O)NCc1cc([N+](=O)[O-])ccc1O	-6%
COCCNS(=O)(=O)c1cc(Br)ccc1OC	-10%
O=C(Cc1coc2ccc3ccccc3c12)Nc1nccs1	9%

5 of these compounds, set out differently:
VDR inhibitor	mol
1%	COc1ccc(OC)c(NC(=O)CN(c2ccccc2OC)S(=O)(=O)c2ccc(C)cc2)c1
-24%	O=C(COC(=O)C1CC(=O)N(Cc2ccccc2)C1)Nc1ccccc1F (stereo not drawn)
-22%	Cc1c(Cl)cnc(NC(=O)COC(=O)c2ccc(S(=O)(=O)NCc3ccco3)cc2)c1Cl
-6%	Cn1nnnc1SCC(=O)NCc1cc([N+](=O)[O-])ccc1O
-10%	COCCNS(=O)(=O)c1cc(Br)ccc1OC

Source: PubChem (National Center for Advancing Translational Sciences (NCATS))
